# From PubChem BioAssay
# RecA splice inh: inhibitors of M. tuberculosis RecA intein splicing. P9WHJ3. cell-free RecA intein splicing, fluorescence. inhibition, %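 (about 9 µM by stock and volumes)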. 0.75% of 290,000 active. AID 2221; in the data active = inhibition above about 30%; inconclusive = no clear call, values can overlap the other calls;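 also: 0% = vehicle wells and 100% = reference inhibitor control wells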
# Target sequence (P9WHJ3 whole entry, looked up, canonical isoform): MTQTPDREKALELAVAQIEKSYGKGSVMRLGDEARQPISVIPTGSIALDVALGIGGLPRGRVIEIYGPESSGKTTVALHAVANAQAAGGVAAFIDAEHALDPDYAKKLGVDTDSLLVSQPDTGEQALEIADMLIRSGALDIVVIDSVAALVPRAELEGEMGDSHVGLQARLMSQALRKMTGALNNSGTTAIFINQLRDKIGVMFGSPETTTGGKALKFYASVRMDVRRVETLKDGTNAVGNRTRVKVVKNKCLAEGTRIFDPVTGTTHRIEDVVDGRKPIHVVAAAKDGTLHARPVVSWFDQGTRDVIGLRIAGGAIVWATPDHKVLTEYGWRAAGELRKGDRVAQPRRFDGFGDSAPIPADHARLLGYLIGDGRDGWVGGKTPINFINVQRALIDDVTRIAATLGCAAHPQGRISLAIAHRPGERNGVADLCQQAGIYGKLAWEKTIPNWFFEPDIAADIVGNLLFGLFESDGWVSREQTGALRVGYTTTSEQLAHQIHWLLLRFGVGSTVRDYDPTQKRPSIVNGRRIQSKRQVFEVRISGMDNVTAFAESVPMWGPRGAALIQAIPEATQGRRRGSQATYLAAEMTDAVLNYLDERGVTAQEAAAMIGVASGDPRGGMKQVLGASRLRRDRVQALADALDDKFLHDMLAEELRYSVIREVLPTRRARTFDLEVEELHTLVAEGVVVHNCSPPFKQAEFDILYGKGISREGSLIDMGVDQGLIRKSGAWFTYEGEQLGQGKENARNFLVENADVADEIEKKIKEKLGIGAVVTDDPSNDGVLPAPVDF
# Arbovirus anti: blocks arbovirus infection; arbovirus infection cell-based antiviral screen; inhibition, % at 10 µM; 0.37% of 200,000 active; AID 1251;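 active = inhibition from about 30%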;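 also: bluetongue infection of BSR cells; cell survival read as ATP light after 72 h; 0% = infected wells without compound and 100% = uninfected wells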
# YopH PTP inh: YopH (Yersinia) phosphatase inhibition. fluorescence Ex485/Em525. inhibition, %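 (about 10 µM by stock and volumes)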. 0.16% of 140,000 active. AID 898;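 active = inhibition of 50% or more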;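 also: controls were vehicle for no effect and minimum signal wells for full effect; inactives centre near -20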
# Mtb bLac sens: beta-lactam sensitization of Mtb H37Rv | inhibition, % at 25 µM | 0.27% of 330,000 active | M. tuberculosis H37Rv growth with meropenem, percent inhibition; hits of this screen are not shown here;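 active = about 74% or more and at least 40 points above the plate without the antibiotic, then above 30% in a dose series; inconclusive = first-round hits that could not be retested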;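 also: growth measured after seven days incubation then overnight dye step; 0% = bacteria only wells and 100% = bacteria with antibiotic; twin plates without the antibiotic show which effects depend on it; some results filed as inactive read as strong as hits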
# Mtb H37Rv: M. tuberculosis H37Rv growth inhibitors, H37Rv strain (AID 1626). M. tuberculosis H37Rv growth inhibition; higher % means a stronger effect. inhibition, % at 10 µM, or IC50 in µM where a hit was titrated. 0.95% of 220,000 active;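 active = confirmed in a dose series; inconclusive = inhibition above 80% but not taken into the dose series; inactive = below 80% or under 30% at every dose of the series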;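 also: bacteria incubated seven days before Alamar blue readout; 0% = bacteria only wells and 100% = bacteria with antibiotic wells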
# Arbovirus anti repeat: second read-out of Arbovirus anti, no call of its own (marks repeat the call); inhibition, %; measured here: 10K subset replicate screen; many hits read low in the repeat;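 first of two repeat runs on a subset; 0% = infected and 100% = uninfected wells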
# * marks the source's active call; other numbers are inactive results; u = inconclusive; x = no result given. These rows are one share of the data (hit frequency here may not be typical).
SMILES,RecA splice inh,Arbovirus anti,YopH PTP inh,Mtb bLac sens,Mtb H37Rv,others
CCSC1=C(C#N)C(c2ccc3c(c2)OCO3)C2=C(CCCC2=O)N1 (stereo not given),0.5,3.0,4.5,-0.5,3.6%,
Cc1n[nH]c(=O)c2c(NC(=O)CSc3ccccc3Cl)oc(C)c12,-1.6,x,x,-8.8,x,
COCCNc1nnc(SCC(=O)NNC(=O)c2ccc([N+](=O)[O-])cc2)s1,-2.3,x,x,8.7,x,
CC(Sc1nc2ccccc2[nH]1)C(=O)O (stereo not given),3.3,0.8,-30.9,-3.1,0.8%,
COC(=O)CN1C(=O)S/C(=C/c2cc(C)n(C)c2C)C1=O,0.5,-3.7,-18.5,7.2,1.8%,
O=C(CN1CC(c2ccccc2)CC1=O)OCc1ccccc1F (stereo not given),-0.9,-3.4,-19.6,-2.1,-2.0%,
O=[N+]([O-])c1cc(/C=N\Nc2ccccn2)ccc1Cl,-0.6,x,x,6.0,x,
Cc1ccc2nc(-c3ccncc3)cc(C(=O)Nc3ccc(OC(F)F)cc3)c2c1,0.4,-6.7,x,-7.2,10.6%,
O=C1C2C3C=CC(C4CC34)C2C(=O)N1/N=C/c1ccc(-c2ccc(F)cc2[N+](=O)[O-])o1 (stereo not given),-1.0,-5.7,-14.8,0.0,-6.8%,
COCCCNC(=O)CSc1nc2c(sc3ccccc32)c(=O)n1CCCC(=O)NCC1CCCO1 (stereo not given),0.2,1.6,x,-3.4,-3.6%,
Cc1ccccc1C(=O)NCC(=O)OC(C)C(=O)NCc1ccco1 (stereo not given),-1.5,x,x,-4.1,x,
COc1ccc(CN(CC2CCC(C(=O)O)CC2)C(=S)Nc2cc(C)cc(C)c2)cc1 (stereo not given),-2.4,13.1,x,3.6,5.5%,
CCOC(=O)C1CCN(C(=O)c2ccc(OCC(=O)Nc3cccc(C(F)(F)F)c3)c(OC)c2)CC1,3.4,x,x,-6.2,x,
CCN(CC)CCN1C(=O)C(=O)/C(=C(/O)c2c(C)[nH]c(C(=O)OC)c2C)C1c1ccc(OC)cc1 (stereo not given),0.6,-0.7,-37.1,-9.3,x,
O=C(C1=C[C@@H](c2coc3ccccc3c2=O)C[C@@H](OCc2ccc(CO)cc2)O1)N1CCN(Cc2ccccc2)CC1,5.8,-6.9,x,56.4,6.0%,
Cc1nn(C(C)C(=O)N2CCCC2)c(=O)c2nn(-c3ccccc3)c(C)c12 (stereo not given),0.0,x,x,-5.7,x,
CCC(=O)N/N=C/c1ccc(OS(=O)(=O)c2ccccc2)cc1,-1.4,-0.1,-26.0,9.0,5.8%,
COc1ccc(/C=N/Nc2nc(N3CCCCC3)nc(N3CCCCC3)n2)cc1[N+](=O)[O-],-3.0,-1.2,-22.9,65.7,27.3%,
CCC1Oc2ccc(C)cc2N(CC(=O)N2CCCC2)C1=O (stereo not given),0.8,x,x,11.6,x,
O=C(NCCCN1CCCC1)Nc1ccc(F)cc1,-1.2,x,x,0.8,x,
Cc1ccc2c(Cl)cc(Cl)c(OCC(=O)O)c2n1,0.4,9.3,x,-8.4,-9.9%,
CCOc1ccccc1NC(=O)CSc1n[nH]c(N)n1,0.1,x,x,-7.5,x,
CNC(=O)c1c[nH]c2ccc(S(=O)(=O)Nc3ccccc3F)cc2c1=O,0.6,x,x,1.8,x,
CN(C)S(=O)(=O)c1cccc(NC(=O)COC(=O)c2ccc3c(c2)OCO3)c1,0.1,8.5,-12.9,-4.8,4.2%,
CCOC(=O)C1CCN(C(=O)CC2C(=O)N(Cc3ccccc3)C(C)c3nc4ccccc4n32)CC1 (stereo not given),-7.2,1.8,-24.1,-6.5,3.0%,
O=C(NCc1ccco1)C(c1ccc(F)cc1)N(CC1CCCO1)C(=O)Cn1nnc2ccccc21 (stereo not given),2.1,7.4,-43.4,-7.2,-3.1%,
Nc1cc(N)nc(SCCN2CCCCC2)n1,-0.3,6.6,1.3,-1.5,3.5%,
CC(=O)Nc1ccc(Nc2nc(C)c([N+](=O)[O-])c(Nc3ccc(NC(C)=O)cc3)n2)cc1,-9.4,19.2,-20.2,5.7,-1.2%,
COC(=O)[C@H](CCSC)NC(=O)Nc1ccc(C)c(C)c1,0.3,1.7,-40.0,11.0,-2.8%,
Cn1c(C(=O)O)cnc1Sc1ncc(C(F)(F)F)cc1Cl,-3.1,8.6,x,-1.3,x,
Cc1cccc(C)c1NC(=S)NC1CCCCC1,0.2,4.5,-24.4,1.2,-2.9%,
CC1=C(C(=O)Nc2ccccc2C)C(c2ccc(C)o2)n2c(s/c(=C/c3ccccc3)c2=O)=N1 (stereo not given),4.7,-1.1,-5.2,40.5,-5.6%,
CC(C)[C@H](NC(=O)[C@@H]1CSCN1C(=O)OC(C)(C)C)C(=O)NCC1CCC(C(=O)O)CC1 (stereo not given in full),0.4,-0.8,-14.2,7.0,-8.3%,
CC(=O)Nc1nc(C)c(Oc2ccc(C)cc2)c(=O)[nH]1,-1.5,x,x,-5.4,5.7%,
COc1cc(C(=S)N2CCOCC2)cc(OC)c1OC(=O)c1ccccc1[N+](=O)[O-],-2.9,x,x,-6.7,x,
Nc1c(-c2ccc(Cl)cc2)cnn1-c1cccc([N+](=O)[O-])c1,6.7,3.4,-9.6,-16.4,11.4%,

# Five neighbouring entries out of the list so far:
SMILES,RecA splice inh,Arbovirus anti,YopH PTP inh,Mtb bLac sens,Mtb H37Rv,others
CCOC(=O)C1CCN(C(=O)CC2C(=O)N(Cc3ccccc3)C(C)c3nc4ccccc4n32)CC1 (stereo not given),-7.2,1.8,-24.1,-6.5,3.0%,
O=C(NCc1ccco1)C(c1ccc(F)cc1)N(CC1CCCO1)C(=O)Cn1nnc2ccccc21 (stereo not given),2.1,7.4,-43.4,-7.2,-3.1%,
Nc1cc(N)nc(SCCN2CCCCC2)n1,-0.3,6.6,1.3,-1.5,3.5%,
CC(=O)Nc1ccc(Nc2nc(C)c([N+](=O)[O-])c(Nc3ccc(NC(C)=O)cc3)n2)cc1,-9.4,19.2,-20.2,5.7,-1.2%,
COC(=O)[C@H](CCSC)NC(=O)Nc1ccc(C)c(C)c1,0.3,1.7,-40.0,11.0,-2.8%,

# Remaining list, next part
SMILES,RecA splice inh,Arbovirus anti,YopH PTP inh,Mtb bLac sens,Mtb H37Rv,others
CCOC(=O)c1cnn(-c2ccc(Cl)cc2)c1C1CCN(C(=O)OC(C)(C)C)CC1,8.3,3.0,-20.1,76.5,4.8%,
O=c1c2ccccc2nc(SCc2ccccc2)n1Cc1ccco1,11.4,8.3,-43.8,2.2,-2.6%,
O=C(N/N=C1\C2CN3CCN(C2)CC1(c1ccccc1)C3)c1ccc(F)cc1,1.0,6.1,-32.8,5.7,6.5%,
Cc1nnn(C23CC4CC(CC(CC(=O)Nc5ccc(C)c(Cl)c5)(C4)C2)C3)n1,0.1,-20.7,-47.0,-6.7,7.9%,
Cc1ccccc1N(C(=O)Cn1nnc2ccccc21)C(C(=O)NCc1ccco1)c1ccncc1 (stereo not given),1.3,4.4,-24.6,5.6,2.9%,
O=C1CCC/C(=N/NC(=O)c2ccc(CN3c4cccc5cccc(c45)S3(=O)=O)cc2)C1,-3.0,3.8,-11.3,8.8,-3.0%,
Cc1ccc(/C=N/NC(=O)c2ccccn2)o1,-5.6,-11.5,-5.0,97.3,18.9%,
Cc1onc(-c2c(F)cccc2Cl)c1C(=O)NCc1ccccc1,0.8,x,x,-7.3,x,
COC(=O)c1ccccc1NC(=O)C12CC3CC(C1)CC(n1cnc(Cl)n1)(C3)C2,3.8,-7.9,-10.9,-1.0,-4.9%,
Cc1cc(NC(=O)COC(=O)COc2cccc3c2OC(C)(C)C3)no1,2.6,6.1,-27.1,0.7,-9.2%,
CC(c1cccs1)N(Cc1ccco1)C(=S)Nc1ccc(F)c(Cl)c1 (stereo not given),26.6,-6.9,x,-3.2,7.1%,
Cc1nc(N/N=C/c2ccccc2)nc(N(C)c2ccccc2)c1[N+](=O)[O-],5.0,-4.2,-18.1,-6.2,1.9%,
CC(=O)c1cccc(S(=O)(=O)N(CCCO)Cc2cc3ccc(C)cc3[nH]c2=O)c1,0.8,10.4,-42.2,u,3.9%,
Cc1ccc(C)c(N=Cc2c(O)c3ccccc3oc2=O)c1,-0.6,x,x,5.7,x,
O=C(COC(=O)c1ccc(Br)o1)NCc1ccco1,0.1,x,-3.3,20.3,-3.9%,
O=C(c1ccccn1)C1CCCN(Cc2cn[nH]c2-c2cc3ccccc3o2)C1 (stereo not given),2.3,10.5,x,4.4,8.5%,
O=C(C1CCCN1C(=O)c1cccs1)N1CCN(Cc2ccc3c(c2)OCO3)CC1 (stereo not given),-1.1,-3.8,12.9,-7.2,x,
O=C(O)c1ccccc1SC1CC(=O)N(C2CCCCC2)C1=O (stereo not given),-2.0,1.1,x,-1.1,-13.5%,Arbovirus anti repeat=-3.0
Fc1ccc(NC(=S)Nc2ccc(Br)cc2)cc1,5.0,-6.2,-30.2,3.7,0.5%,
O=C(CN1CC(c2ccccc2)CC1=O)Nc1ccccc1 (stereo not given),-0.5,2.9,-18.7,-4.3,-10.6%,Arbovirus anti repeat=-2.7
COc1ccc(C/C(N)=N/OC(=O)c2ccco2)cc1OC,6.2,0.2,x,5.8,-4.4%,
Cc1ccc(C)c(S(=O)(=O)N/N=C/c2ccc(N3CCOCC3)cc2)c1,-2.8,x,x,9.2,0.9%,
COCc1ccc(CN2CCC(CO)(CC3CCCCO3)CC2)o1 (stereo not given),-4.8,-4.3,x,0.2,-2.3%,
CCOC(=O)c1c(C)oc2c1c(C=NCCO)c(O)c1ccccc12,45.7*,4.2,x,x,-7.4%,

# Brought forward from above: 5 compounds, followed by the next part.
SMILES,RecA splice inh,Arbovirus anti,YopH PTP inh,Mtb bLac sens,Mtb H37Rv,others
O=C(CN1CC(c2ccccc2)CC1=O)Nc1ccccc1 (stereo not given),-0.5,2.9,-18.7,-4.3,-10.6%,Arbovirus anti repeat=-2.7
COc1ccc(C/C(N)=N/OC(=O)c2ccco2)cc1OC,6.2,0.2,x,5.8,-4.4%,
Cc1ccc(C)c(S(=O)(=O)N/N=C/c2ccc(N3CCOCC3)cc2)c1,-2.8,x,x,9.2,0.9%,
COCc1ccc(CN2CCC(CO)(CC3CCCCO3)CC2)o1 (stereo not given),-4.8,-4.3,x,0.2,-2.3%,
CCOC(=O)c1c(C)oc2c1c(C=NCCO)c(O)c1ccccc12,45.7*,4.2,x,x,-7.4%,
Cc1ccc(C(=O)O)cc1NC(=O)C1CCCN1S(=O)(=O)c1cccc2nsnc12 (stereo not given),-1.0,-1.7,-48.7,0.3,-4.5%,
COc1ccc(C(O)P(=O)(OC(C)C)c2ccc(N(C)C)cc2)c(OC)c1 (stereo not given),-3.0,x,x,-1.7,x,
O=C(Cn1nc(Cc2cccnc2)c2ccccc2c1=O)N1CCC2(CC1)OCCO2,-0.3,-2.0,-41.6,-13.3,-0.6%,
CSc1nc(Sc2ccc(Cl)cc2)c2ccccc2n1,2.7,-4.1,-1.6,-4.9,x,
O=C(NCC1CCCO1)c1ccccc1-c1nc(-c2ccc(Cl)cc2)no1 (stereo not given),-0.5,-1.5,17.1,11.8,4.7%,
Cc1c2cnn(-c3ccccc3)c(=O)c2c(C)n1CCCC(=O)N1CCN(C2CCCCC2)CC1,-3.1,x,x,-3.9,0.4%,
CCC1(C(=O)c2ccccc2)C(c2ccc([N+](=O)[O-])cc2)C1(C(=O)OC)C(=O)OC (stereo not given),8.3,2.8,4.7,4.0,7.4%,
Clc1ccc(-c2nsc(N3CCOCC3)n2)c(Cl)c1,1.5,x,x,0.1,x,
Cc1cccc(/C=C2/S/C(=N/N=C3\CC4CCC3(C)C4(C)C)NC2=O)c1 (stereo not given),5.2,-12.5,-37.9,99.1,u,
CC(CN1CCCCC1)OC(=O)/C=C/c1ccccc1 (stereo not given),0.1,x,x,7.3,x,
O=C(NCc1ccco1)c1ccc(-c2csnn2)cc1,1.2,x,x,-1.9,-10.5%,
CCOC(=O)C1CCCN(/C=C2\SC(=S)N(CC)C2=O)C1 (stereo not given),1.4,x,x,2.8,0.9%,
CCc1ccc(NC(=O)CCS(=O)(=O)c2ccc3c(c2)CCN3C(C)=O)cc1,1.1,x,x,-3.4,x,
O=C(NCCc1ccccc1)c1ccccc1NS(=O)(=O)N1CCCC1,2.8,6.2,-21.2,2.1,-4.0%,
C#Cc1ccc([C@H]2C=C(C(=O)O)O[C@@H](OCc3ccc(CO)cc3)C2)cc1,0.9,3.4,x,-2.4,-1.7%,
CC(C)(C)OC(=O)NOCC(=O)N(CC(=O)c1ccccc1)Cc1ccccc1,2.0,x,x,-0.9,x,
CC(C)CCc1noc(CN(C)CC2CCN(Cc3ccccc3)CC2)n1,-1.2,-0.7,x,4.5,7.0%,
Cc1cc(C)c2c(c1)/C(=N/NC(=O)c1ccc(O)cc1)CCC2,x,3.0,x,7.9,-0.4%,
CCOC(=O)c1cc(CC)sc1N,-0.3,-4.8,-20.9,-3.8,6.6%,
